Screening data as filed in PubChem.
GIV-Gai inh: inhibitors of GIV peptide binding to Galpha-i3, primary screen, biochemical, fluorescence polarization, FITC-GIV GBA peptide, rat Galphai3; actives 0.42% (n = 210,000); 90 min; stronger effect = lower value; scaled: aluminum fluoride 0%, vehicle 100%; Guanine nucleotide-binding protein G(i) subunit alpha-3 (Rattus norvegicus), P08753; percent of control (FP), % (no concentration beside the values);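 active = replicate mean at 85% of control or lower, very high polarization wells dropped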;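 note: wells of about 15 µL received 100 nL stock; the first replicate is given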
Target sequence (P08753 whole entry, looked up): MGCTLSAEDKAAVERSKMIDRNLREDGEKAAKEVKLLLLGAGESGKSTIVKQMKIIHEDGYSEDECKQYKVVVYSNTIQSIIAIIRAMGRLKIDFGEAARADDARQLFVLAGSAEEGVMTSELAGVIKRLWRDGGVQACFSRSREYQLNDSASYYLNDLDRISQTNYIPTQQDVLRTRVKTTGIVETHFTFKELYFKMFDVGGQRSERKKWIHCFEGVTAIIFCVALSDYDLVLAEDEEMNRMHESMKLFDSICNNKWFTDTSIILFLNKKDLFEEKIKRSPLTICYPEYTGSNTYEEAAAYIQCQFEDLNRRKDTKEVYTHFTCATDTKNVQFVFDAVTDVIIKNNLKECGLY
Sa growth 42C: S. aureus growth inhibition at 42 and 30 °C, primary screen, LtaS inhibitor project, RN4220, two temperatures; relative growth, % (no concentration beside the values); actives 0.53% (n = 170,000); OD600, 20 h, 42 °C; stronger effect = lower value;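 active = growth at 42 °C up to 50% and 20 or more points under that at 30 °C, or under 10% at both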;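 note: 300 nL library stock went into each well; scaled to the means of positive and negative controls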
HCMV UL50-53 inh: inhibitors of HCMV UL50-UL53 interaction, biochemical, HTRF. HCMV UL50-UL53 nuclear egress complex (human cytomegalovirus). inhibition, % (no concentration beside the values). AID 1918969, 2023. actives 0.15% (n = 190,000). normalized percent inhibition;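 active = both replicates at 50% or more, plus weaker picks with an unusually low signal ratio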;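 note: stock transfer was 100 nL into about 20 µL; 0% = negative control wells and 100% = wells with untagged competitor protein; inactives centre near -12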
Sa growth 42C second temp: also measured in Sa growth 42C; calls as there; relative growth, %; measured here: growth at 30 °C;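 optical density after 20 h as mean of two plates; 100% = untreated growth and lower means inhibition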
Active calls of the source: *; x = not tested or not shown.

item	compound	HCMV UL50-53 inh	Sa growth 42C second temp
1	CC(OC(=O)c1ccc2c(c1)NC(=O)C1CCCN21)C(=O)Nc1cccc(C#N)c1 (configuration not stated)	-18	75
2	CCc1cccc(C)c1NC(=O)CSc1nc2ccncc2[nH]1	14	84
3	COC(=O)Cn1c(=O)c2cccn2c2ccccc21	x	90
4	O=C(Nc1cccc(-c2nc3ccccc3o2)c1)c1cccc(Br)c1	x	89
5	Nc1c(Sc2ccccc2)c(Sc2ccccc2)c(N)c2c1C(=O)c1ccccc1C2=O	-9	x
6	CC1CCN(C(c2ccc(F)cc2)c2sc3nc(-c4ccco4)nn3c2O)CC1 (configuration not stated)	x	86
7	Cc1occc1-c1nnc2sc(COc3ccccc3)nn12	7	x
8	CCCCOc1ccc(CNC(=O)c2cnc3sc(N4CCC(C)CC4)nn3c2=O)cc1	x	99

item	GIV-Gai inh	Sa growth 42C
1	x	72
2	108	91
3	97	101
4	104	106
5	104	x
6	97	125
7	108	x
8	103	116

Single entries from above:
CCc1cccc(C)c1NC(=O)CSc1nc2ccncc2[nH]1 in HCMV UL50-53 inh shows 14
Nc1c(Sc2ccccc2)c(Sc2ccccc2)c(N)c2c1C(=O)c1ccccc1C2=O in GIV-Gai inh shows 104
O=C(Nc1cccc(-c2nc3ccccc3o2)c1)c1cccc(Br)c1 in Sa growth 42C second temp shows 89
COC(=O)Cn1c(=O)c2cccn2c2ccccc21 in GIV-Gai inh shows 97

Next compounds:
item	compound	HCMV UL50-53 inh	Sa growth 42C second temp
9	COc1cccc(Nc2sc(C(=O)c3ccc(F)cc3)c(N)c2C(=O)NCc2ccc(Cl)cc2)c1	x	107
10	Nc1cccc(NC(=O)CCC(=O)NCc2ccco2)c1	-7	93
11	CC(C)CC(=O)N1c2ccccc2NC2=C(C(=O)CC(C)(C)C2)C1c1ccc(Cl)cc1 (configuration not stated)	15	x
12	CCCCC(=O)N1c2ccccc2N2C(c3c(C)cc(C)cc3C)=NON12	-12	53
13	CCc1cccc(NC(=O)CNS(=O)(=O)c2ccc3nc(C)sc3c2)c1	-16	75
14	CCc1cc(C(=O)O)c(NC(=O)c2ccccc2)s1	-6	75
15	CC1Cc2ccccc2N1C(=O)COC(=O)c1cc2ccccc2oc1=O (configuration not stated)	-9	86
16	CC1CN(C)C(C)CC1OC(=O)c1ccccc1 (configuration not stated)	-8	93

item	GIV-Gai inh	Sa growth 42C
9	115	105
10	104	99
11	99	x
12	102	77
13	101	103
14	101	154
15	x	79
16	99	86

Later entries
item	compound	HCMV UL50-53 inh	Sa growth 42C second temp
17	CC1CC(=O)NN=C1c1ccc(Cl)cc1 (configuration not stated)	-13	104
18	N#C/C(=N\Nc1cc(C(=O)O)cc(C(=O)O)c1)C(=O)c1ccccc1	-52	95
19	CCC(=O)N1CCN(c2ccc(OC)cc2)CC1	-7	100
20	CC(=O)NCc1nc(-c2ccccc2Cl)no1	14	x
21	CC1SC(=S)N(CCCC(=O)O)C1=O (configuration not stated)	-16	55
22	CC(=O)n1cc(C2C(=O)CC(C)(C)CC2=O)c2ccccc21	-34	109
23	Cc1ccc(-c2noc(CNC(=O)C3CCCCC3)n2)cc1	-16	76
24	CC1CN(c2ncc(C(=O)OCc3ccc(Cl)cc3)c(C(F)(F)F)n2)CC(C)O1 (configuration not stated)	-1	69

item	GIV-Gai inh	Sa growth 42C
17	94	104
18	x	94
19	104	105
20	103	x
21	105	61
22	103	98
23	98	84
24	109	100

More records follow.
item	compound	HCMV UL50-53 inh	Sa growth 42C second temp
25	COc1cc(OC)c(OC)cc1CNCc1ccco1	10	83
26	Cc1ccc(-n2ncc3c(=O)n(CC(N)=O)cnc32)cc1	10	88
27	O=C(Nc1ccc2nn(-c3ccccc3)nc2c1)c1ccc(-c2cccc(Cl)c2)o1	10	102
28	Cc1c(N2CCC(C(=O)Nc3ccc(F)cc3)CC2)c(=O)n(C)c(=O)n1C	-30	x
29	CCOC(=O)N1CCC(N2CC34C=CC(O3)C(C(=O)Nc3ccc(OCC)cc3)C4C2=O)CC1 (configuration not stated)	x	87
30	Cc1ccc2[nH]c(CNC(=O)c3ccncc3)cc2c1	x	79
31	CCn1c(SCC(=O)Nc2ccc(OC)cc2)nc2ccsc2c1=O	x	90
32	CC(C)Cn1c(=O)c2sccc2n2c(SCc3ccc(F)cc3)nnc12	8	x

item	GIV-Gai inh	Sa growth 42C
25	101	99
26	98	103
27	104	99
28	104	x
29	113	73
30	100	79
31	101	90
32	105	x

Other results:
item	compound	HCMV UL50-53 inh	Sa growth 42C second temp
33	COc1ccc(C2=NC(c3ccccc3OC)NC(c3ccccc3O)C2)cc1 (configuration not stated)	x	90
34	O=C(CCc1ccccc1)NCCOc1ccccc1	1	91
35	O=C(CCn1cccc1)NCCCc1ccccc1	-30	84
36	CCc1cc(S(=O)(=O)n2ccnc2)ccc1OC	0	30
37	COc1ccccc1N1CCN(CCN(C(=O)c2ccc(F)cc2)c2ccccn2)CC1	-32	x
38	CN1CCN(CCCNC(=O)C2CCN(S(=O)(=O)N3CCC4(CC3)OCCO4)CC2)CC1	3	86
39	CN(c1ccc(C(=O)NCCC2=CCCCC2)cc1)S(C)(=O)=O	-2	97
40	O=C(O)c1nccnc1-c1nc2ccccc2s1	-80	96

item	GIV-Gai inh	Sa growth 42C
33	106	87
34	102	89
35	103	102
36	105	56
37	95	x
38	98	91
39	104	117
40	x	75

The list continues:
item	compound	HCMV UL50-53 inh	Sa growth 42C second temp
41	COc1ccc(NC(=O)C2CCCN(c3nc4cccnc4s3)C2)c(OC)c1 (configuration not stated)	-32	x
42	CCc1ccc(/C=C2/C(=O)NC(=O)N2C(C)=O)cc1	-29	x
43	COc1cccc(-n2c(=O)c3cc(OC)c(OC)cc3n(CC(N)=O)c2=O)c1	2	94
44	CCOc1ccccc1-c1noc(-c2ccncc2)n1	15	79
45	COc1cccc(NC(=O)Cn2nnc(-c3nc(-c4ccccc4)no3)c2N)c1	x	81
46	O=C(CNc1ccc(Cl)cc1F)N1CCCc2ccccc21	-27	85
47	CSc1nc2ccc(NS(=O)(=O)c3ccccc3C(F)(F)F)cc2s1	-30	54
48	Cc1nc(Nc2ccc(S(N)(=O)=O)cc2)nc(Nc2ccc(S(N)(=O)=O)cc2)c1Br	-18	x

item	GIV-Gai inh	Sa growth 42C
41	107	x
42	101	x
43	99	83
44	101	108
45	112	123
46	x	93
47	104	67
48	100	x

Other entries follow.
item	compound	HCMV UL50-53 inh	Sa growth 42C second temp
49	CCc1ccc(C2CC(=O)Nc3n[nH]c(C)c32)cc1 (configuration not stated)	16	x
50	Cc1cc(C)nc(SCc2nc3scc(C)n3c2Br)n1	-13	86
51	COc1ccc(CCNC(=O)Cc2c(C)c3c(cc(C)c4c(C)c(C)oc43)oc2=O)cc1OC	-33	86
52	COC(=O)C1CCN(c2cc(=O)n(-c3ccc(OC)cc3)c(=O)[nH]2)CC1	-2	96
53	Cc1nn(-c2ccccc2)c(C)c1CCc1nn2c(-c3cccnc3)nnc2s1	2	x
54	O=c1[nH]c2sc3c(c2c2nncn12)CCCC3	-7	94
55	CCc1ccc(NC(=O)C(C)OC(=O)c2c(F)cccc2F)cc1 (configuration not stated)	0	91
56	CC(=O)Nc1ccc(NC(=O)CCCc2c[nH]c3ccccc23)cc1	x	38

item	GIV-Gai inh	Sa growth 42C
49	107	x
50	x	95
51	102	109
52	100	107
53	105	x
54	96	96
55	x	120
56	105	69

Single records, from the list above. Order of screens: HCMV UL50-53 inh | Sa growth 42C second temp | GIV-Gai inh | Sa growth 42C
`COC(=O)C1CCN(c2cc(=O)n(-c3ccc(OC)cc3)c(=O)[nH]2)CC1` across the screens: -2 | 96 | 100 | 107
`CCc1ccc(NC(=O)C(C)OC(=O)c2c(F)cccc2F)cc1` (configuration not stated) across the screens: 0 | 91 | x | 120
`CC(=O)Nc1ccc(NC(=O)CCCc2c[nH]c3ccccc23)cc1` across the screens: x | 38 | 105 | 69
`COc1ccc(CCNC(=O)Cc2c(C)c3c(cc(C)c4c(C)c(C)oc43)oc2=O)cc1OC` across the screens: -33 | 86 | 102 | 109
`Cc1nn(-c2ccccc2)c(C)c1CCc1nn2c(-c3cccnc3)nnc2s1` across the screens: 2 | x | 105 | x

(listing goes on)
item	compound	HCMV UL50-53 inh	Sa growth 42C second temp
57	CC1CC(C)CN(C(=O)COC(=O)c2ccccc2NS(=O)(=O)c2ccc3c(c2)OCCO3)C1 (configuration not stated)	-17	97
58	COC1c2c(c(-c3ccccc3)nn2-c2ccccc2)-c2nc3ccccc3n21 (configuration not stated)	-17	78
59	CC(=O)N1CCN(c2nc(C)nc3sc(-c4ccccc4)cc23)CC1	3	93
60	OCCCCn1cnc2cc(Cl)c(Cl)cc21	23	93
61	CCOc1ccc(Oc2nc(C)nc3sc4c(c23)CCCC4)cc1	-2	x
62	Cc1c(C)n(CC(C)C)c2ncn3nc(CSc4nc5ccccc5o4)nc3c12	-19	x
63	CN1C(=O)C(C)(C)c2cc(S(=O)(=O)N3CCC(C(=O)NC4CCCCC4)CC3)ccc21	-3	x
64	NC(=O)C1CCN(C(=O)NC2CCCCC2)CC1	-8	98

item	GIV-Gai inh	Sa growth 42C
57	x	102
58	x	89
59	x	108
60	112	120
61	108	x
62	104	x
63	111	x
64	103	97

The results go on:
item	compound	HCMV UL50-53 inh	Sa growth 42C second temp
65	CCCn1c(=O)[nH]c2cc(-c3noc(/C=C/c4ccccc4OC)n3)ccc21	7	x
66	COc1cc(C(=O)NCc2nnc(SCC(=O)N3CCc4ccccc43)o2)cc(OC)c1OC	x	81
67	CC1CCN(C(=O)COc2ccc3c4c(c(=O)oc3c2)CCCCC4)CC1	-45	83
68	c1ccc2c(c1)CCc1c-2nc2ccccc2c1N1CCOCC1	-15	91
69	Cc1ccc(C(=O)NC(=O)OC[C@@H]2CCCN3CCCCC23)cc1 (some centres not stated)	-3	90
70	COc1ccc(N2CCN(C(=O)c3cccc(-n4c(C)nc5cccnc54)c3)CC2)cc1	x	81
71	COc1ccc(-c2noc(CCC(=O)NCc3ccc(C)cc3)n2)cc1	-6	92
72	O=C(CCN1CCCCC1)N/N=C/c1cccnc1	-27	80

item	GIV-Gai inh	Sa growth 42C
65	103	x
66	100	82
67	102	113
68	97	88
69	x	97
70	106	110
71	109	125
72	99	116

Compounds above that contain a COOH group (four):
item	compound	HCMV UL50-53 inh	Sa growth 42C second temp
14	CCc1cc(C(=O)O)c(NC(=O)c2ccccc2)s1	-6	75
18	N#C/C(=N\Nc1cc(C(=O)O)cc(C(=O)O)c1)C(=O)c1ccccc1	-52	95
21	CC1SC(=S)N(CCCC(=O)O)C1=O (configuration not stated)	-16	55
40	O=C(O)c1nccnc1-c1nc2ccccc2s1	-80	96

item	GIV-Gai inh	Sa growth 42C
14	101	154
18	x	94
21	105	61
40	x	75

More results:
item	compound	HCMV UL50-53 inh	Sa growth 42C second temp
73	CCOC(=O)c1cc2n(n1)CC(C)(C(=O)NCCC(C)C)N(c1ccc3c(c1)OCO3)C2=O (configuration not stated)	-19	x
74	COc1ccc2c(COC(=O)c3ccccc3NCCO)cc(=O)oc2c1	-30	56
75	COCc1[nH]nc2c1C1(C(=O)Nc3ccccc31)C(C#N)=C(N)O2 (configuration not stated)	-1	65
76	O=C(CCc1ccco1)N1CCCC(c2nc3ccccc3s2)C1 (configuration not stated)	4	56
77	O=C(Nc1cc(Cl)cc(Cl)c1)c1ccc(F)c(S(=O)(=O)N2CCCCCC2)c1	x	102
78	O=C(O)c1cc2c(s1)CCCC2	0	100
79	Cc1ccc(N2C(=O)NC(=O)/C(=C\c3ccc(-c4ccccc4C(=O)O)o3)C2=O)cc1	-17	x
80	Cc1csc(N(C(=O)c2ccccc2)c2ccccc2)n1	1	88

item	GIV-Gai inh	Sa growth 42C
73	102	x
74	x	89
75	x	80
76	x	76
77	105	129
78	x	104
79	108	x
80	x	103

New compounds follow
item	compound	HCMV UL50-53 inh	Sa growth 42C second temp
81	Brc1ccc(NCc2c[nH]c3ccccc23)cc1	-47	59
82	O=C(COC(=O)c1ccc(CS(=O)(=O)c2ccccc2)o1)c1ccc[nH]1	3	94
83	CCc1ccc(S(=O)(=O)c2nnn3c2nc(N2CCC(C)CC2)c2cc(Cl)ccc23)cc1	17	90
84	CCOC(=O)N1CCN(CCC(=O)c2ccc(OC)cc2)CC1	x	72
85	CCCc1c(C)nc2c(-c3ccc(OC)cc3)c(C)[nH]n2c1=O	-12	x
86	Cc1c(-c2ccccc2)nnn1-c1ccc(F)cc1F	-16	83
87	COc1cc(C)ccc1OCCSc1nc2ccc(NC(=O)c3ccccc3F)cc2s1	13	87
88	COc1ccc(OCC(O)CNC(=S)Nc2ccc3c(c2)OCCO3)cc1 (configuration not stated)	-31	83

item	GIV-Gai inh	Sa growth 42C
81	x	93
82	x	96
83	108	94
84	97	89
85	95	x
86	97	103
87	104	96
88	104	91

Later entries.
item	compound	HCMV UL50-53 inh	Sa growth 42C second temp
89	O=C(Nc1ccc(S(=O)(=O)N2CCCCC2c2cccnc2)cc1)c1ccc(Br)o1 (configuration not stated)	4	79
90	Cc1ccc(NC(=O)COC(=O)C2CCN(C(=O)OC(C)(C)C)CC2)cc1C	-9	92
91	N#Cc1ccc(COC(=O)CSc2nnc(C3CCCCC3)n2N)cc1	-7	90
92	CC(NCc1ccccc1)C1CC1 (configuration not stated)	-10	91
93	O=C(NCc1ccncc1)c1cccs1	-17	86
94	O=C(Cc1ccccc1)N(Cc1cccnc1)c1nc2c(F)cccc2s1	x	75

item	GIV-Gai inh	Sa growth 42C
89	101	96
90	x	103
91	x	89
92	x	87
93	99	82
94	100	92
